# Measles inh: inhibitors of measles virus growth in infected cells | AID 745 | infected Vero cells, GFP fluorescence, 64 h; hits give low values | hit rate 0.1% among 33,000 | z-score (no concentration beside the values);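 active = z-score under -3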;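 note: score is relative to mean and SD of the compound wells of a plate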
# * marks the source's active call; other numbers are inactive results. Some of the compounds tested. The share of hits here may be higher or lower than overall.
Measles inh,Structure
-0.32,COc1ccccc1C(=O)Nc1ccc(-c2nc3cc(C)cc(C)c3o2)cc1
-1.4,CCCC(=O)Oc1c(S(=O)(=O)c2ccccc2)c(C)nn1-c1ccc(C)cc1C
1.5,O=C(O)c1ccc(NS(=O)(=O)c2cc(C(=O)Nc3ccccc3)ccc2Cl)cc1
0.78,Cc1ccc(-n2nc(C(=O)N(C)C3CCCCC3)c3c4ccccc4n(C)c3c2=O)cc1
-0.21,CC1CCCC(NC(=O)C2N(Cc3ccccc3Cl)C(=O)C3C(C(=O)Nc4cccc(Cl)c4)C4C=CC32O4)C1C (configuration not stated)
-0.24,COc1ccc(-n2c(=O)c3ccccc3n(Cc3cc(=O)n4ccccc4n3)c2=O)cc1OC
-1.7,CN(C)C(=O)N1CCC(C(=O)NCc2ccc(F)cc2)CC1
-0.79,NS(=O)(=O)c1ccc(CCNC2CC(=O)N(c3ccc(I)cc3)C2=O)cc1 (configuration not stated)
-0.73,CCCOc1ccc(-c2nn(-c3ccccc3)cc2C2NC(=O)NC(C)=C2C(=O)OCC)cc1 (configuration not stated)
1.4,CCOC(=O)c1cccnc1SCC(=O)Nc1ccc(C)cc1
6.1,Cn1c(=O)c(NC2CCCCC2)c2c3c(cccc31)C(=O)c1ccccc1-2
-0.94,CCOC(=O)C1=C(N)OC2=C(C(=O)CC(C)(C)C2)C1c1ccc(O)c(OC)c1 (configuration not stated)
0.54,O=C(NC1CCCCNC1=O)c1ccc(N2CC3CC(C2)c2cccc(=O)n2C3)c(NC(=O)c2ccccc2Cl)c1 (configuration not stated)
-0.7,CCc1ccc(NS(=O)(=O)c2ccc3nc(-c4ccccc4)[nH]c3c2)cc1
0.06,O=C(Nc1cc(C(F)(F)F)ccc1Cl)c1cc(S(=O)(=O)N2CCCC2)ccc1F
0.06,Cc1cccc2[nH]c(-c3ccc(N)cc3)nc12
2.1,CC1=CC(c2ccccc2)=Nc2ccc(C)cc2N1
-1.7,CCCCN(CC)C(=O)c1cc2cc3ccc(Cl)cc3nc2o1
0.38,O=C(CCCC1=NS(=O)(=O)c2ccccc2N1)N1CCCCCC1
-0.08,Cc1ccc(S(=O)(=O)N(CCC(N)=O)Cc2ccccc2)cc1

# Three compounds from above, ordered by the number in Measles inh, descending:
Molecule,Measles inh
O=C(O)c1ccc(NS(=O)(=O)c2cc(C(=O)Nc3ccccc3)ccc2Cl)cc1,1.5
Cc1cccc2[nH]c(-c3ccc(N)cc3)nc12,0.06
CCCCN(CC)C(=O)c1cc2cc3ccc(Cl)cc3nc2o1,-1.7

# (more compounds)
Measles inh,Structure
-1.7,CCc1ccc(NC(=O)c2cc(S(=O)(=O)N(CC)Cc3ccccc3)ccc2F)cc1
0.01,O=C(Nc1cc(C(=O)N2CC=C(c3ccccc3)CC2)ccc1N1CC2CC(C1)c1cccc(=O)n1C2)c1ccc(F)cc1 (configuration not stated)
0.4,CCOc1ccc(NC(=O)Nc2cccc(C)n2)cc1
-0.64,COc1ccc(S(=O)(=O)N(CC(=O)NCc2cccnc2)c2ccc(C)cc2)cc1
0.66,CCC(NCc1c(O)ccc2c3c(c(=O)oc12)CCC3)C(=O)O (configuration not stated)
-1.4,Cc1ccc(C(C)C)c(OCCNC(=O)c2ccc(C(C)(C)C)cc2)c1
-0.78,CCCCN(C)CCn1c(=S)[nH]c2cc3c(cc2c1=O)OCO3
1.4,COC(=O)c1sc(NC(=O)CSc2nc(C)nc3sc4c(c23)CCC4)c(C(=O)OC)c1C
-0.88,O=C(CN1CCCCCC1)N1c2ccccc2C=Cc2ccccc21
-0.9,Cn1c(SCc2ccccc2[N+](=O)[O-])nnc1-c1cccnc1
-0.13,O=C1c2ccccc2CN1c1ccc(OC(F)(F)F)cc1
-1.6,CCOc1ccc(NC(N)=Nc2nc(CSc3ccc(Cl)cc3)cc(=O)[nH]2)cc1
-0.61,CC1(C)CC(=O)c2sc(NC(=O)c3cc(-c4ccccc4)nc4ccccc34)nc2C1
-0.5,CC(=O)c1ccc(OC(=O)c2c(-c3ccccc3Cl)noc2C)cc1
-0.98,O=C(NCc1ccccc1)c1cccc(N2C(=O)C3C4C=CC(C4)C3C2=O)c1 (configuration not stated)
-0.06,O=C(Nc1ccc([N+](=O)[O-])cc1)c1cccnc1Cl
-0.4,Cc1ccc(C)c(NC(=O)c2ccc(F)c([N+](=O)[O-])c2)c1
-0.47,COc1ccc(-c2cc(C(=O)NC(C)C)c3cc(C(C)C)ccc3n2)cc1
0.57,COC(=O)c1sccc1NC(=O)c1cc(-c2ccccc2Cl)nc2ccccc12
0.51,CC(=O)Nc1cccc(NC(=O)c2ccccc2Br)c1
1.4,O=C(CC1(O)C(=O)Nc2ccccc21)c1cccc([N+](=O)[O-])c1 (configuration not stated)
-0.78,CCOc1ccc(-c2n[nH]c(=S)n2C2C=CCCC2)cc1 (configuration not stated)
1.1,CC1CN(C=O)c2ccccc2NC1=O (configuration not stated)
-0.18,COc1cc(-c2c(C#N)c(N)nc(SCC(N)=O)c2C#N)cc(OC)c1OC
1.1,CCOc1ccc(NC(=O)c2ccc(F)c(S(=O)(=O)NCC3CCCO3)c2)cc1 (configuration not stated)
-1.1,COc1ccc(C(=O)C[n+]2cc(Br)cc3ccccc32)cc1[N+](=O)[O-]
-0.34,COc1ccc(CNC(=O)c2cc3nc(-c4ccc([N+](=O)[O-])cc4)cc(C(F)(F)F)n3n2)cc1
-2.1,C=CCn1c(SCc2ccccc2F)nc2cc(C(=O)N3CCOCC3)ccc2c1=O
0.16,Cc1ccc2[nH]c3c(cc(N4CCCCC4)c4c(=O)c5ccccc5c(=O)c43)oc2c1
0.35,CCOc1nc(-c2ccc(Cl)cc2)nc2ccccc12
-0.19,CCN1CCCC1CNC(=O)c1ccc(Sc2ccc(F)cc2)c([N+](=O)[O-])c1 (configuration not stated)
-0.91,CC(=O)c1ccc(NC(=O)CCCn2nc([N+](=O)[O-])c(Cl)c2C)cc1
-0.92,CC(=O)Nc1cc(C(=O)NCc2ccccc2Cl)ccc1Sc1ccc(F)cc1
0.4,O=[N+]([O-])c1ccc(CSc2nnnn2-c2ccccc2)cc1
1.6,NC(=O)C1CCN(C(=O)c2ccccc2NC(=O)c2ccccc2Br)CC1
-0.11,COC(=O)c1sc(-c2ccccc2)cc1NC(=O)c1ccc(S(=O)(=O)N2CCc3ccccc3C2)cc1
-0.97,CCCCNC(=O)c1cn(C)c(=O)c2c1c1ccccc1n2C
-0.75,COC(=O)CCC(=O)Nc1cccc(Br)c1
-2.2,O=C(NCCn1ccc2ccccc21)c1ccccc1Cl
-0.77,O=C(CSc1ccc2ccccc2n1)N1CCCCCC1

# Among those listed so far, these contain a CF3 group:
Measles inh,Structure
0.06,O=C(Nc1cc(C(F)(F)F)ccc1Cl)c1cc(S(=O)(=O)N2CCCC2)ccc1F
-0.13,O=C1c2ccccc2CN1c1ccc(OC(F)(F)F)cc1
-0.34,COc1ccc(CNC(=O)c2cc3nc(-c4ccc([N+](=O)[O-])cc4)cc(C(F)(F)F)n3n2)cc1

# In a second layout: four of the compounds above.
Molecule: CCOc1ccc(-c2n[nH]c(=S)n2C2C=CCCC2)cc1 (configuration not stated)
  Measles inh = -0.78

Molecule: CC1CN(C=O)c2ccccc2NC1=O (configuration not stated)
  Measles inh = 1.1

Molecule: COc1cc(-c2c(C#N)c(N)nc(SCC(N)=O)c2C#N)cc(OC)c1OC
  Measles inh = -0.18

Molecule: CCOc1ccc(NC(=O)c2ccc(F)c(S(=O)(=O)NCC3CCCO3)c2)cc1 (configuration not stated)
  Measles inh = 1.1

# Additional compounds.
Measles inh,Structure
0.19,Cc1ccc(NC(=O)CCN2CC(C)CC(C)C2)cc1 (configuration not stated)
0.62,O=C(NCc1ccc(F)cc1)C(Sc1ccccc1)c1ccccc1 (configuration not stated)
-1.9,Cc1ccccc1C(=O)Nc1ccc(-c2nc3ccccc3c(=O)o2)cc1
-2.2,O=C(Nc1ccccc1C(=O)Nc1nc2ccc(Cl)cc2s1)c1ccccc1
-0.25,CC1CCN(C(=O)CSc2nnc3sc4ccccc4n23)CC1
-0.24,CCOC(=O)C1CCCN(C(=O)Cn2cnc3sc(C)c(S(=O)(=O)N4CCC(C)CC4)c3c2=O)C1 (configuration not stated)
-0.39,CCN(C(=O)CCC(=O)Nc1ccc2nc(N3CCCCC3)cc(C)c2c1)c1cc(C)ccc1C
1.8,Cc1cc(=O)oc(C)c1C(=O)N(C)Cc1ccccc1
-1.1,CCOC(=O)C(CC)Oc1ccc2c(C)cc(=O)oc2c1 (configuration not stated)
0.2,Cc1ccc(S(=O)(=O)N2CCCCC2C(=O)N2CCCCCC2)cc1 (configuration not stated)
-0.31,CNC(=O)C(O)C(C)(C)CO (configuration not stated)
3,COc1ccc(N(CC(=O)NC23CC4CC(CC(C4)C2)C3)S(=O)(=O)c2ccccc2)cc1
-1.2,C=CCOC(=O)C1=C(C)N=C2SC(C)C(=O)N2C1c1ccc(OCC)cc1 (configuration not stated)
-0.82,c1cncc(-c2cc(-c3ccncc3)nc3ccc4ccccc4c23)c1
-0.35,C=CCCC(C)(O)C#CCN1CCCCC1 (configuration not stated)
-0.92,COc1ccc(S(=O)(=O)CCC(=O)Nc2cccc3c2CCCC3)cc1
-0.36,O=[N+]([O-])c1ccc(N2CCN(S(=O)(=O)c3ccc(Cl)cc3)CC2)cc1N1CCCC1
0.15,Cc1[nH]c2ccc(-c3nnc(SCCC#N)n3-c3ccccc3)cc2c1C
-1.1,Cn1c2c(c3cc(F)ccc31)CCCC2=O
0.32,Cc1c(C(=O)Oc2cccc3ccccc23)cccc1[N+](=O)[O-]
0.01,Cc1cc([N+](=O)[O-])ccc1NC(=O)CCCCCN1C(=O)c2ccccc2C1=O
1.1,CCSc1nc2c(cnn2-c2ccc(Cl)cc2)c(=O)[nH]1
-0.01,O=C(Cn1c(=S)[nH]c2ncccc2c1=O)NCCC1=CCCCC1
-0.35,CCSc1nnc2[nH]c(=O)cc(N)n12
-1.1,O=C(Nc1sc2c(c1C(=O)Nc1ccccc1)CCCCC2)c1ccco1
-0.35,Cc1ccnc(NC(=O)COC(=O)CN2C(=O)C(=O)c3ccccc32)c1
-0.06,CC(C)Oc1ccc(-c2cc(C(=O)Nc3ccc(S(N)(=O)=O)cc3)c3ccccc3n2)cc1
1.9,Cc1ccccc1CS(=O)(=O)CCC(=O)NCCN1CCCCC1C (configuration not stated)
0.86,CN(c1ccccc1)c1nc2ccsc2c(=O)s1
0.75,CC1=NC(C(F)(F)F)(C(F)(F)F)c2c(n(-c3ccc(Cl)cc3)c(=O)[nH]c2=O)N1
0.12,C=CCNC(=O)c1ccc2c(c1)N(Cc1cc(C)ccc1C)C(=O)c1ccccc1S2
0.17,CCn1ccc(C(=O)Nc2ccc(S(=O)(=O)Nc3ccccc3OC)cc2)n1
0.23,CCCc1c(C)nc2ccc(OC)cc2c1SCCC(=O)O
0.29,C=CCc1ccc(OC(C)C(=O)Nc2sc3c(c2C#N)CCC3)c(OC)c1 (configuration not stated)
0.1,COc1ccc2nc(SCC(=O)NCC34CC5CC(CC(C5)C3)C4)[nH]c2c1
-0.24,COc1ccc(N(C)S(=O)(=O)c2cccc3nsnc23)cc1
-0.35,CC(=O)Oc1ccc2oc(=O)c3c(c2c1)CCCN3C(=O)CN1CCN(c2ccccc2)CC1
1.3,O=C(O)Cc1ccc(-n2c(=O)[nH]c3ccsc3c2=O)cc1
1.2,CCOc1ccc(C2NC(=O)NC(C)=C2C(=O)OCCSCC)cc1 (configuration not stated)
-0.41,COc1ccccc1NS(=O)(=O)c1ccc(CC(C)C)cc1
-0.72,CC1CCN(c2ccc(N3C(=O)C4CC=CCC4C3=O)cc2[N+](=O)[O-])CC1 (configuration not stated)
-0.04,C=CCOc1ccc2c(C)c(Cc3ccccc3)c(=O)oc2c1C
-0.25,Cc1cc(C)nc(NC(=NS(=O)(=O)c2ccccc2)Nc2ccc(C(C)C)cc2)n1
-0.8,O=S(=O)(NCCCc1ccccc1)c1cccc2nsnc12
-0.02,COc1ccc(C(=O)NCC(C)c2ccccc2)cc1OC (configuration not stated)
-1.3,Fc1ccccc1-c1nnn(Cc2ccccc2Cl)n1
-0.25,OCCOCCn1c(-c2ccccc2)nc(=S)c2c1CCCC2
1.8,COc1cc(OC)cc(-n2nc(C(=O)NCc3ccccc3OC)c3ccccc3c2=O)c1
-0.52,COc1ccc(C(=O)Nc2ccccc2C(=O)N2CCOCC2)cc1
-0.09,COC(=O)c1ccc(OC(=O)c2sc3ncn(C)c(=O)c3c2C)cc1
-0.13,Cc1ccc(CNC(=O)C(C)N2C(=O)COc3ccc(Cl)cc32)cc1 (configuration not stated)
0.04,CC1CCc2c(sc(N=Cc3cccnc3)c2C#N)C1 (configuration not stated)
0.45,COc1ccc(C2NC(=S)NC(C)=C2C(=O)Nc2cc(C)cc(C)c2)cc1OC (configuration not stated)
0.71,O=C(Nc1cccc(-c2nc3ccccc3o2)c1)c1ccccc1Cl
1.1,NCCCCCCNC(=O)c1c(O)c2cccc3c2n(c1=O)CC3
-0.49,CC(C)CCNC(=O)CCNC(=O)c1cccs1
-0.47,COc1ccc(CN(CCC(c2ccccc2)c2ccc3c(c2)OCO3)C(C)=O)cc1 (configuration not stated)
-0.05,CCN(CC)c1ccc2cc(C(=O)Nc3cccc4ccccc34)c(=N)oc2c1
-0.36,CCN1C(=O)c2cccc3c(NC(=O)c4ccc(S(=O)(=O)N5CCCCC5)cc4)ccc1c23
-0.69,O=C(CCC1CCCCC1)Nc1c2c(nn1-c1ccc([N+](=O)[O-])cc1)CSC2

# (next part)
Measles inh,Structure
-0.17,Cc1ccc(-c2csc(NC(=O)COc3ccc(C)cc3Br)n2)cc1
0.47,O=C(NC1CCCCC1)c1ccc2c(=O)n(-c3ccc(F)cc3)c(=S)[nH]c2c1
-0.33,Cc1cc(Nc2ccc(C)c(F)c2)n2ncnc2n1
-0.55,CCc1ccccc1NC(=O)c1cccc(C(=O)Nc2ccccc2CC)c1
-0.74,Cc1ccc(Cl)cc1N1CCN(C(=O)Cn2cnc3sc(C)c(S(=O)(=O)N4CCC(C)CC4)c3c2=O)CC1
-0.07,Cc1ccc(C2(O)CC(C(F)(F)F)=NN2C(=O)c2cccc(Cl)c2)cc1 (configuration not stated)
1,Cc1cc(C)c2c(N)c(-c3nc4ccccc4[nH]3)sc2n1

# Source: PubChem BioAssay
